Screening results deposited in PubChem BioAssay by several laboratories.
WNV NS2B-NS3 inh: inhibitors of WNV NS2B-NS3 protease, primary screen, biochemical, fluorogenic substrate | AID 577, 2007 | fluorogenic substrate Ex360/Em465; active compounds read low | 0.18% of 65,000 active | z-score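 (tested at a level between 10 and 100 µM)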;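 active = z-score at -3 or under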;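 note: score is relative to mean and spread of the compound wells of a plate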
Target sequence (P06935 1371-1501 limits assumed): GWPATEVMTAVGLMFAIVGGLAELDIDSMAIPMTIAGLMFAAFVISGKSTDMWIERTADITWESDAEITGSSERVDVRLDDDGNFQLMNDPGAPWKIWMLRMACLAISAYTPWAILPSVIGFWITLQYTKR
Target sequence (P06935 1502-1679 limits assumed): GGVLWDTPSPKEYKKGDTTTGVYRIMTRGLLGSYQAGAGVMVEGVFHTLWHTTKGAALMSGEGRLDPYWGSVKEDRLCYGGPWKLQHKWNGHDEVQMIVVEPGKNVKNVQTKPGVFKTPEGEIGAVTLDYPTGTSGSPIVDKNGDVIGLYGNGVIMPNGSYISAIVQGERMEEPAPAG
Hsc70: Hsc70 inhibitors, probe displacement, primary screen, biochemical, fluorescence polarization (AID 568) | Heat shock cognate 71 kDa protein (Homo sapiens) | displacement, % at 20 µM; hits with a dose series show IC50 in µM | Hsc70 fluorescence polarization, probe displacement; higher % means a stronger effect; strong numbers were not always called active | 83,000 tested, under 10 active;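 active = displacement above 50% without optical interference and an IC50 on retest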;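 note: ATPase domain with a fluorescein-tagged ATP probe; 0% = vehicle and 100% = excess ADP; read after one hour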
MT1-MMP promoter: inhibitors of MT1-MMP promoter transcription, cell-based, luciferase reporter, luminescence (AID 618) | MT1-MMP promoter luciferase reporter cells, luminescence | calls from a first round at 10 µM; hits with a dose series show EC50 in µM | 0.62% of 87,000 active;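 active = over half of the reporter light lost at 10 µM or EC50 under 50 µM; inactive = the rest and hits that failed the dose series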;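 note: actives suppress MT1-MMP promoter-driven transcription so potencies describe inhibitors; HT1080 fibrosarcoma cells; overnight exposure; toxic or luciferase-blocking compounds were not removed from the actives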
Numbers without * were called inactive; i = inactive; · = no result given. This is a subset; the hit share may differ from the screen's.

Molecule	WNV NS2B-NS3 inh	Hsc70	MT1-MMP promoter
Cn1c(=O)c2c(nc(CN3CCC(Cc4ccccc4)CC3)n2CCN2CCOCC2)n(C)c1=O	0.62	-10%	i
Cc1c(C(=O)NCc2cccnc2)oc2ccccc12	-0.58	-8.0%	i
CC(=O)N1CCN(c2ccc(NCc3cccs3)cc2)CC1	0.0097	-6.2%	i
COc1cccc(C2N(c3cccc(Cl)c3)C(=O)C3CCCN32)c1 (stereo unspecified)	0.47	4.8%	i
Cc1ccc(CNc2nc(N)c([N+](=O)[O-])c(Nc3ccc(F)cc3)n2)cc1	·	-1.5%	i
CCCC(=O)c1cc(F)c(N2CCOCC2)cc1C	1.8	-5.3%	i
CCN1CCC(C(N)=O)CC1	·	1.6%	i
COc1cc(S(=O)(=O)NC2CCCCC2)ccc1Cl	-0.04	1.4%	i
CC1(C)CC(=O)C(C=NCCN2CCN(CC(=O)Nc3ccccc3)CC2)=C(O)C1	·	6.2%	i
CC(=O)N1CCCc2cc(S(=O)(=O)NC(C(=O)NCc3ccc(C)cc3)C(C)C)ccc21 (stereo unspecified)	-0.26	-3.7%	i
CCOc1nc(S(=O)(=O)c2ccc(C)cc2)c(Cl)s1	-0.21	0.0%	i
[O-][n+]1onc2c1CCc1c-2nn(-c2ccccc2Cl)[n+]1[O-]	0.56	-5.0%	i
CCOC(=O)Nc1sc2c(c1C#N)CCC(C)C2 (stereo unspecified)	1	-1.9%	i
O=C(CNS(=O)(=O)c1ccc(F)cc1)Nc1ccc(C(F)(F)F)cc1	·	-3.1%	i
Cc1noc(C)c1COc1cccc(C(=O)OCCOc2ccc(F)cc2)c1	1.1	1.2%	i
CCc1nnc(NC(=O)c2cnccn2)s1	1.8	-1.2%	i
COc1cc2c(C(=O)NCCCN3CC(C)CC(C)C3)cn(CC(C)C)c(=O)c2cc1OC (stereo unspecified)	-0.55	2.4%	i
CCN(CC)CCNC(=O)Cn1nc(-c2ccccc2)c2ccccc2c1=O	0.33	2.6%	i
CCn1c(C)nc2c(=O)oc3ccccc3c21	-0.96	-7.3%	i
O=C(Nc1cccc2cccnc12)c1ccc(Br)o1	-0.97	-3.2%	i
Cc1cccc(NC(=O)CCN2CCOCC2)c1	-0.31	-1.4%	i
CCN1C=CC2=C(C#N)C(N)C(C#N)(C#N)C(c3ccccc3C(F)(F)F)C2C1 (stereo unspecified)	·	2.5%	i
CC(=O)Nc1nc(CCC(C)C)cc2c1c(=O)oc1ccccc12	2.5	1.6%	i
CC1CCCN(C(=O)CSc2nnc(-c3c[nH]c4ccccc34)o2)C1 (stereo unspecified)	0.94	-0.4%	i
Cn1c(=O)[nH]c(=O)c2c1nc(N1CCOCC1)n2CCCSc1ncccn1	-0.17	-2.1%	i
COc1ccc(OC)c(NC(=O)C2CCCN2C(=O)C2CCC(C)CC2)c1 (stereo unspecified)	3.1	2.6%	i
CC1CC(=O)N(Cc2ccccc2)c2ccccc2N1C=O (stereo unspecified)	-0.43	-4.2%	i
O=C(N/N=C/c1cccc(Oc2ccc([N+](=O)[O-])cc2[N+](=O)[O-])c1)c1cncc(Br)c1	·	-6.0%	i
CCOC(=O)N1CCN(Cc2nc3c(c(=O)n(C)c(=O)n3C)n2Cc2cccc3ccccc23)CC1	1.2	5.0%	i
CCOC(=O)c1c(N)sc2c1C1CCN2CC1	-1.8	2.9%	i
C=CCn1c(NCc2ccc3c(c2)OCO3)nc2ccccc21	0.9	3.8%	i
Cc1cc(-c2[nH]nc3c2C(c2ccsc2)C(C#N)=C(N)O3)c(C)s1 (stereo unspecified)	1.3	-3.2%	i
CCCCCC(=O)Nc1c(-c2cccs2)c(=O)c2ccccc2n1C	·	-4.2%	i
COc1ccc(C(=O)Oc2cccnc2)cc1OC	-1.6	8.0%	i
CCOc1ccccc1OCc1nn2c(COc3ccccc3)nnc2s1	-0.87	0.5%	i
COc1ccc(CC(=O)NC2CCN(Cc3nnnn3C(C)(C)C)CC2)cc1OC	-1.2	5.0%	i
COc1ccc(C(=O)NCCc2c[nH]c3ccccc23)cc1S(=O)(=O)N1CCOCC1	2.2	-2.9%	i
Cc1ccc(S(=O)(=O)/C(C#N)=C/c2c(N3CCC(C(N)=O)CC3)nc3ccccn3c2=O)cc1	·	1.7%	i
O=C(OCc1cc2ccccc2[nH]c1=O)C1CCCO1 (stereo unspecified)	1	-7.5%	i
CCCCOc1cccc(NC(=O)CSc2nccn2C)c1	-0.48	0.1%	i
Cc1ccc(C(=O)NCCN2CCCC2)cc1	·	-1.2%	i
COc1cccc(-n2c(CNC(=O)OC(C)(C)C)n[nH]c2=S)c1	-0.58	2.2%	i
CC1(C)C(c2ccccc2)=NC(c2ccccc2)N1O (stereo unspecified)	-0.27	6.0%	i
CN(C)c1ccc(/C=C/c2cc[n+](C)cc2)cc1	·	-65%	i
Cc1ccc(CNC(=O)C(=O)NCC2CCCO2)cc1 (stereo unspecified)	·	-3.2%	i
COC(=O)C1C2C=CC3(CN(CCc4ccccc4)C(=O)C13)O2 (stereo unspecified)	-0.7	0.2%	i
O=C(Nc1ccc2ccccc2c1)N1CCN(c2ncccc2C(F)(F)F)CC1	1.5	-0.9%	i
CC(C)COC(=O)NCC12C=CC(O1)C1C(=O)N(c3ccc(Cl)cc3)C(=O)C12 (stereo unspecified)	0.13	0.8%	i
CCC(Sc1nc(-c2ccccc2)c(C#N)c(=O)[nH]1)C(=O)Nc1cc(C)on1 (stereo unspecified)	0.03	1.2%	i
CC(C)c1nc2oc3ccccc3c(=O)c2c(=O)n1-c1ccccc1	·	0.2%	i
CSCCC(NC(N)=O)C(=O)N(C)CC(=O)Nc1cc(C)ccc1C (stereo unspecified)	·	2.5%	i
CCOc1ccc2nc3c(cc2c1)CN(CCOC)C(=NC)S3	·	3.4%	i
Cc1cccc2cc(C(c3nnnn3C(C)(C)C)N3CCN(C(=O)c4ccco4)CC3)c(=O)[nH]c12 (stereo unspecified)	-0.35	1.7%	i
CCOC(=O)Nc1ccc2c(c1)N(C(=O)N(C)C)c1ccccc1CC2	1.5	3.2%	i
COc1cccc(-c2nc3ccccc3c(=O)o2)c1	·	-1.8%	i
CC1C2C(C)N(C)C(=O)N(C)C2N(C)C(=O)N1C (stereo unspecified)	-0.41	12%	i
COc1ccc(C(=O)N2CCN=C2SC)cc1OC	-0.92	-5.4%	i
CCN1CC=C2C(C1)C(c1ccc(Cl)s1)C(C#N)=C(N)C2(C#N)C#N (stereo unspecified)	-0.63	89%	i
CC12CCC(C(=O)Nc3ccccc3)(C/C1=N\O)C2(C)C (stereo unspecified)	·	4.6%	i
O=c1[nH]c(CN(CCO)CCO)nc2c1C1(CCCCC1)Cc1ccccc1-2	0.18	-8.0%	i

Next part.
Molecule	WNV NS2B-NS3 inh	Hsc70	MT1-MMP promoter
CCc1ccc(C(C(=O)NC(C)(C)CC)N(Cc2ccco2)C(=O)Cn2nnc3ccccc32)cc1 (stereo unspecified)	·	-4.7%	i
CCC(=O)Nc1ccc(NC(=O)CN2CCCC(C)C2)c(Cl)c1 (stereo unspecified)	-0.1	-3.9%	i
C=C(C)Cn1c(Sc2nc3ccccc3[nH]2)nc2c1c(=O)[nH]c(=O)n2C	-0.95	2.2%	i
O=C(c1ccncc1)N1CCN(C(=O)c2cccc3ccccc23)CC1	-0.32	1.3%	i
CC1CCN(C(=O)CSc2nnc(-c3cc4ccccc4cc3O)n2Cc2ccco2)CC1	-1.1	-3.6%	i
COc1nc(OC)nc(N2CCC(C(=O)NCC3CCCCC3)CC2)n1	-0.34	3.0%	i
CCCc1cc(=O)oc2cc(OCC(=O)N(C)C)c(Cl)cc12	1.1	2.0%	i
CCn1nc(NC(=O)c2cccnc2)c2cc3ccccc3nc21	-0.07	-4.0%	i
CN(CCc1ccccn1)C(=O)CCNC(=O)Cn1cnc2ccccc2c1=O	0.22	1.9%	i
COc1ccc(-n2c(Cc3cccn3C)nnc2SCC(=O)Nc2ccc(C)cc2C)cc1	-1.2	2.9%	i
COc1ccccc1N(C(=O)NCc1ccccc1)C1=NCC(C)S1 (stereo unspecified)	0.75	3.3%	i
O=c1[nH]c2cc3c(cc2cc1C(c1nnnn1C1CCCC1)N1CCSCC1)OCCO3 (stereo unspecified)	-0.88	0.0%	i
COc1ccc(N2CCn3c2nc2c3c(=O)n(CCCc3ccccc3)c(=O)n2C)cc1	-0.31	0.3%	i
CCC(=O)Nc1c2c(nc3c1CCC3)CCCC2	0.34	-1.0%	i
O=C(NC1CCCCCC1)C1CC(=O)N(Cc2ccccc2)C1 (stereo unspecified)	-2.5	3.2%	i
CC(=O)c1ccc(Nc2nc(NCCO)nc(OC(C(F)(F)F)C(F)(F)F)n2)cc1	·	3.4%	i
CCCOP(=O)(c1ccc(N(C)C)cc1)C(O)c1cc(OC)c(OC)c(OC)c1 (stereo unspecified)	-0.65	1.1%	i
CCC(C)(C)n1nnnc1C(c1ccc(C)cc1)N1CCN(Cc2ccc3c(c2)OCO3)CC1 (stereo unspecified)	·	0.8%	i
Cc1ccc(SC(C)C(=O)N2CCCC2)cc1 (stereo unspecified)	-0.38	1.6%	i
CCn1c(=O)cc(SCC(=O)NCCCN2CCN(c3ccc(F)cc3)CC2)c2ccccc21	1.1	0.0%	i
COC(=O)CSc1cc(C)nc(SC)n1	·	2.6%	i
CCC(CC)C(=O)Nc1c2c(nn1-c1ccc(OC)cc1)CS(=O)C2 (stereo unspecified)	0.28	-2.6%	i
Cc1cc(C(=O)CCC(=O)N2CCN(S(=O)(=O)c3cccs3)CC2)c(C)s1	-0.57	-3.7%	i
CCCCS(=O)(=O)/C=C/[C@H]1[C@H](S(=O)(=O)CCCC)[C@H]2C=C[C@@H]1C2	·	0.4%	i
CC1C=CCC2C(=O)N(c3cccc(C(=O)N4CCCCCC4)c3)C(=O)C12 (stereo unspecified)	-1.3	-4.0%	i
Cc1ccc2c(c1)cc(CN(Cc1cccnc1)C(=O)NCc1ccccc1)c1nnnn12	·	4.4%	i
Cc1cc2c(cc(C(=O)O)n2C)s1	1.2	-2.6%	i
Cn1c(C(=O)OCC(=O)NCc2cccs2)cc2sccc21	-0.87	7.6%	i
CCC(=O)NC(=Nc1nc2ccccc2s1)NC(=O)CC	-1.5	-0.6%	i
Nc1nnc(SCc2ccc(F)cc2Cl)s1	1.4	-3.4%	i
CCCC(c1nnnn1CCOC)N1CCN(C(=O)c2ccco2)CC1 (stereo unspecified)	-1.2	3.3%	i
COc1cc(C2C(C#N)=C(N)Oc3cc(C)n(Cc4ccccn4)c(=O)c32)cc2c1OCO2 (stereo unspecified)	-0.23	1.0%	i
O=C1O/C(=C\C(=O)N2CCOCC2)c2ccccc21	0.3	-5.7%	i
Cc1c(NC(=O)C2CC=CCC2C(=O)O)c(=O)n(-c2ccccc2)n1C (stereo unspecified)	-0.48	0.9%	i
Cc1ccc(-n2c(SCc3cn4ccsc4n3)nc3ccccc3c2=O)cc1	-1.7	-8.1%	i
CC(C)Oc1cc(O)c2c(=O)c(-c3ccc(O)cc3)coc2c1	-0.31	3.1%	i
COCCNC(=O)NC(=O)COC(=O)C12CC3CC(CC(NC(C)=O)(C3)C1)C2	1.2	7.8%	i
O=C(Nc1cccc(F)c1)C1CCN(C(=O)Cc2ccccc2)CC1	3	-5.0%	i
O=S(=O)(N1CCCCC1)N1CCNCC1	·	-1.5%	i
COc1ccc(-c2nnc(SCC(=O)c3ccc(C)o3)o2)cc1	0.03	6.3%	i
COc1cc(C2NC(=O)NC(C)=C2C(=O)OCC2CCCO2)ccc1O (stereo unspecified)	-0.85	-1.8%	i
Cc1ccc(C(CC(=O)N2CCOCC2)c2ccco2)cc1 (stereo unspecified)	0.04	-1.7%	i

7 structures already listed, ordered by molar mass, rising:
Molecule	WNV NS2B-NS3 inh	Hsc70	MT1-MMP promoter
O=C1O/C(=C\C(=O)N2CCOCC2)c2ccccc21	0.3	-5.7%	i
Nc1nnc(SCc2ccc(F)cc2Cl)s1	1.4	-3.4%	i
Cc1ccc(C(CC(=O)N2CCOCC2)c2ccco2)cc1 (stereo unspecified)	0.04	-1.7%	i
O=C(Nc1cccc(F)c1)C1CCN(C(=O)Cc2ccccc2)CC1	3	-5.0%	i
Cc1c(NC(=O)C2CC=CCC2C(=O)O)c(=O)n(-c2ccccc2)n1C (stereo unspecified)	-0.48	0.9%	i
COc1cc(C2NC(=O)NC(C)=C2C(=O)OCC2CCCO2)ccc1O (stereo unspecified)	-0.85	-1.8%	i
COc1cc(C2C(C#N)=C(N)Oc3cc(C)n(Cc4ccccn4)c(=O)c32)cc2c1OCO2 (stereo unspecified)	-0.23	1.0%	i
